Screens from PubChem.
Mtb H37Rv: Mycobacterium tuberculosis H37Rv growth inhibition, cell based, confirmatory dose response (AID 1949) | most inactive calls were filed without a number and no value below 0 was filed | 100,000 compounds, 1.6% hits | inhibition, % at 10 µg/mL, or IC50 in µg/mL where a hit was titrated;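 active = confirmed in a dose series; inconclusive = about 50% or more but not retested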;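 also: bacteria grown 7 days with compound before Alamar blue readout; 0% = untreated bacteria and 100% = reference antibiotic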
The depositor's hits bear a star; i = inactive; ? = inconclusive.

Sample of the layout, eight compounds:
SMILES	Mtb H37Rv
CC(C)Cc1ccc(C(=O)NCc2ccc3c(c2)OCO3)o1	i
COc1ccc(C2(C(=O)Nc3ccc(C(=O)NCCN4CCOCC4)cc3)CCOCC2)cc1	i
CCC(=O)NC(=S)Nc1cccc(C(=O)O)c1C	i
O=C(NCCSc1ccccc1)C1CCCN1S(=O)(=O)c1ccc2ccccc2c1 (stereo not given)	1.7%
COC(=O)c1c(NC(=O)CSc2ccccn2)sc2c1CCC2	i
CCC(=O)Nc1ccc2c3c(cccc13)C(=O)NC2=O	3.2%
COC(=O)C(C)(C)NC(=O)Nc1ccc(Cl)cc1Cl	3.7%
O=C(Nc1cccc([N+](=O)[O-])c1)c1ccncc1	i

All compounds of this part, previewed entries included:
SMILES	Mtb H37Rv
CC(C)Cc1ccc(C(=O)NCc2ccc3c(c2)OCO3)o1	i
COc1ccc(C2(C(=O)Nc3ccc(C(=O)NCCN4CCOCC4)cc3)CCOCC2)cc1	i
CCC(=O)NC(=S)Nc1cccc(C(=O)O)c1C	i
O=C(NCCSc1ccccc1)C1CCCN1S(=O)(=O)c1ccc2ccccc2c1 (stereo not given)	1.7%
COC(=O)c1c(NC(=O)CSc2ccccn2)sc2c1CCC2	i
CCC(=O)Nc1ccc2c3c(cccc13)C(=O)NC2=O	3.2%
COC(=O)C(C)(C)NC(=O)Nc1ccc(Cl)cc1Cl	3.7%
O=C(Nc1cccc([N+](=O)[O-])c1)c1ccncc1	i
N#C/C(=C/c1ccc([N+](=O)[O-])cc1)C(=O)Nc1ccc(O)cc1	i
COc1ccc(OCCN(C)Cc2ccccc2)cc1	i
CC12CCC(C(=O)Nc3ncc(Cl)cc3Cl)(CC1=O)C2(C)C (stereo not given)	i
O=C(Nc1nccs1)C1CC1c1ccccc1 (stereo not given)	48.1%
O=C(CCCC(=O)Nc1c(Cl)cccc1Cl)Nc1c(Cl)cccc1Cl	i
CC(=O)c1ccc(NC(=O)C2CCC(=O)N2S(=O)(=O)c2ccc(C)cc2)cc1 (stereo not given)	i
CC(=O)C1=C(C)Nc2ncnn2C1c1ccccn1 (stereo not given)	i
Cc1ccc(NC(=O)c2nc[nH]c2C(=O)Nc2ccccc2C)cc1	i
O=C(COc1ccc(Cl)cc1Cl)Nc1ccccc1-c1ccccc1	i
N#C/C(=C\c1cccs1)c1nn(-c2ccccc2)c(N)c1C#N	i
COc1cc(N2CCCC2)c(OC)cc1/C=C(/C#N)c1nc2ccccc2[nH]1	i
CCOC(=O)c1ccc(COC(=O)c2cc3ccccc3cc2O)cc1	i
CCOc1ccc(NC(=O)C(C)Oc2ccccc2C(=O)Nc2cc(OC)c(OC)c(OC)c2)cc1 (stereo not given)	3.1%
Cc1cc2cc(OCc3ccccc3)ccc2n1C	9.0%
O=C(CSc1nc2ccccc2s1)Nc1ccc2c(c1)OCCO2	i
C=CCc1ccccc1OCc1n[nH]c(=S)n1Cc1ccccc1	i
CCCC(=O)Nc1ccc(Cl)c(NC(=O)C(Cl)(Cl)Cl)c1	i
COc1ccc(Cl)cc1NC(=O)C(C)Oc1ccc(F)cc1 (stereo not given)	i
COc1ccccc1C(=O)NC(=S)NNC(=O)c1ccccc1C	i
COc1ccc(CC(=O)Nc2ccc(S(=O)(=O)N3CCCCC3)cc2)cc1	i
CCOc1ccc(NC(=O)CN(Cc2ccc(C)cc2)S(=O)(=O)c2ccc(C)cc2)cc1	5.4%
CN(C)CCCN(CCCN(C)C)CC1CCCCC1	1.9%
COc1ccc(-c2nnc(Nc3ccc(OCC(N)=O)cc3)c3ccccc23)cc1	10.8%
Cc1sc2[nH]c(=S)n(-c3ccccc3)c(=O)c2c1C(C)C	i
O=C(Nc1ccccc1C(=O)NC1CCCCC1)c1ccc(F)cc1	i
COc1cc(-c2n[nH]c(=S)n2-c2ccc(F)cc2)cc(OC)c1OC	i
Cc1ccc(C(=O)Nc2cc([N+](=O)[O-])ccc2C)c(C)c1	i
O=C(OCc1ccc(Cl)cc1)c1ccco1	24.8%
Cc1cc2c(cc1C)C(c1ccc(F)cc1)CC(=O)N2 (stereo not given)	3.4%
S=c1[nH]nc(-c2ccncc2)n1C1CCCC1	i
Cc1cccc(C(=O)Nc2ccc(NC(=S)NC(=O)c3ccc(C)cc3C)cc2)c1	i
N#Cc1ccccc1NC(=O)c1ccc(-c2ccccc2Cl)o1	3.1%
CCc1cc2c(=O)c(-c3nc4ccccc4n3C)c(C(C)(C)C)oc2cc1O	i
COc1c(S(=O)(=O)Nc2cccc(C)n2)ccc(Cl)c1Cl	i
Cc1ccccc1Oc1ccc(S(=O)(=O)Nc2ccccc2F)cc1	i
O=C(Nc1cccc(Cl)c1N1CCOCC1)c1ccc([N+](=O)[O-])o1	i
COC(=O)COc1ccc(CNC2CCCCCCC2)cc1	i
Cc1cc(OCCOCCN(C)C)ccc1Cl	i
C=CCNC(=O)c1cc(OCC)c(OCC)c(OCC)c1	i
S=c1[nH]nc(SCc2ccccc2Cl)s1	i
O=C(COc1ccc(Cl)cc1)NC(=S)Nc1ccc2c(c1)COC2=O	i
Oc1ccc(-c2cnc3ccncc3n2)cc1	i
OCCCNC(=S)Nc1ccc(Cl)cc1	i
CCC(=O)Oc1cccc(C(=O)Nc2ccc(-c3nc4ccccc4[nH]3)cc2)c1	i
CCCCC(=O)Nc1ccc(NC(=S)NC(=O)CC(C)C)cc1OC	i
Cc1cc(C(=O)N2CCC(Cc3ccccc3)CC2)cs1	i
COc1ccc(Cl)cc1NC(=O)CSc1nc2ccccc2o1	1.2%
COCCCNCCCCOc1ccc(Br)cc1C	i
CCN1CCN(S(=O)(=O)c2cc(OCC(N)=O)c(C)cc2Cl)CC1	1.7%
O=c1ccnc(SCc2ccc(F)cc2)[nH]1	2.8%
CCOC(=O)C1=C(CSCC(=O)OC)NC(=O)NC1c1cc(C)ccc1C (stereo not given)	i
C=CCN(CC=C)S(=O)(=O)c1ccc2nc(NC(=O)C(C)C)sc2c1	i
The list goes on:
SMILES	Mtb H37Rv
CN1C(=O)c2ccc(NC(=S)NC(=O)c3ccc(-c4cccc(Cl)c4Cl)o3)cc2C1=O	i
Cn1c(Oc2ccc(Cl)c3cccnc23)nc2c1c(=O)n(Cc1ccccc1Cl)c(=O)n2C	1.2%
O=C(Nn1cnnc1)c1ccccc1Cl	1.2%
COC(=O)c1c(-c2ccccc2)csc1NC(=O)c1cnccn1	i
COc1cc(OC)cc(C(=O)Nc2ccc3oc(-c4ccccc4Cl)nc3c2)c1	i
CCOC(=O)C1=C(C)NC(=S)NC1c1ccc(OC)c(COc2ccc(F)cc2)c1 (stereo not given)	14.8%
CNC(=S)Nc1cc(Cl)ccc1Oc1ccccc1	0.5%
O=C(Cc1ccccc1[N+](=O)[O-])Nc1ccc(C(F)(F)F)cc1	i
O=C(NCCc1ccccc1)C(=S)N1CCOCC1	i
CSc1ccccc1NC(=O)CSCc1ccc([N+](=O)[O-])cc1	i
O=C(CNc1ccccc1Cl)c1ccccc1	i
O=C(O)CCC(=O)c1ccc2ccccc2c1	i
COc1cc(C2C(C(C)=O)C(=O)CC(C)(O)C2C(C)=O)cc(OC)c1OC (stereo not given)	i
CSc1nc(-c2ccco2)nn1C(=O)c1cccc([N+](=O)[O-])c1	i
CCN(c1ccccc1)c1ccc([N+](=O)[O-])c2nonc12	0.17µg/mL*
CCc1ccc(OCc2nnc(SCC(=O)Nc3cc(C)c(C)cc3Br)n2CC)cc1	i
Cc1nnc(SCC(=O)Nc2ccccc2C#N)s1	i
COC(=O)c1cc(NC(=S)NCCCN2CCOCC2)cc(C(=O)OC)c1	i
CC(C)c1ccc2oc(-c3cccc(NC(=S)NC(=O)c4ccc(F)cc4)c3)nc2c1	44.5%
COc1ccc(S(=O)(=O)Nc2ccc(S(=O)(=O)Nc3ccccc3C)cc2)cc1OC	i
COc1ccc(NC(=O)COc2ccc(Cl)cc2Br)cc1Cl	i
COc1cc2c(cc1NC(=O)CSc1nnc(Cc3cccs3)n1C)oc1ccccc12	?
CN(C)C(C)(C)C#CC(O)(c1ccccc1)c1ccccc1	1.9%
Cc1ccccc1NC(=O)c1cc2c(n(-c3ccc(Cl)cc3)c1=O)CCCC2=O	i
COc1ccc(NC(=O)c2sc3nc(N4CCOCC4)c4c(c3c2N)CC(C)(C)OC4)cc1	i
CC(=O)Nc1ncc(CN2CCCCC2)s1	3.0%
Nc1c(C(=O)Nc2nccs2)sc2nc3c(c(-c4ccccc4Cl)c12)CCCC3	13.9%
CN1CCN(C(=O)c2cccc(S(=O)(=O)N(C)C)c2)CC1	i
COc1ccc(CSc2nc3ccccc3o2)cc1Br	i
CCc1ccc(-n2c(SCc3ccccc3Cl)nnc2-c2ccncc2)cc1	3.1%
COc1cc(-c2nc(-c3ccccc3)c(-c3cccs3)[nH]2)cc(OC)c1OC	i
CCOc1ccc(Nc2nc(NCc3ccco3)c3ccccc3n2)cc1	1.36µg/mL*
CCOC(=O)C1=C(C)N=c2s/c(=C\c3ccco3)c(=O)n2C1c1cccc([N+](=O)[O-])c1 (stereo not given)	i
CC(=O)c1cccc(NC(=S)NC(=O)c2ccc(C)cc2Cl)c1	i
O=C(Nc1ccc(OC(F)(F)F)cc1)c1ccc2c(c1)C(=O)N(CC1CCCO1)C2=O (stereo not given)	i
O=C(CCCOc1ccc(Cl)cc1)Nc1nnc(C2CCCO2)s1 (stereo not given)	i
COc1ccc(C2Nc3ccc(C(=O)c4ccccc4)cc3NC3=C2C(=O)CCC3)cc1O (stereo not given)	i
O=C(O)CCN1c2ccccc2Sc2ccccc21	i
COC(=O)c1c(NC(=O)COc2ccc3ccccc3c2)sc(C(=O)N(C)C)c1C	i
CCC(C)NS(=O)(=O)c1ccc(NC(=O)c2cccs2)cc1 (stereo not given)	i

An excerpt from above in order of heavy-atom count, high to low.
SMILES	Mtb H37Rv
COc1ccc(C2Nc3ccc(C(=O)c4ccccc4)cc3NC3=C2C(=O)CCC3)cc1O (stereo not given)	i
CCOC(=O)C1=C(C)N=c2s/c(=C\c3ccco3)c(=O)n2C1c1cccc([N+](=O)[O-])c1 (stereo not given)	i
COc1cc(-c2nc(-c3ccccc3)c(-c3cccs3)[nH]2)cc(OC)c1OC	i
CCOc1ccc(Nc2nc(NCc3ccco3)c3ccccc3n2)cc1	1.36µg/mL*
CN(C)C(C)(C)C#CC(O)(c1ccccc1)c1ccccc1	1.9%
O=C(O)CCN1c2ccccc2Sc2ccccc21	i

Later entries
SMILES	Mtb H37Rv
Cc1nnc(SCC(=O)Nc2ccccc2C(C)C)s1	i
O=C(CSc1nc2ccccc2[nH]1)NCCOc1ccc(Cl)cc1	i
COc1ccc(N2CCN(CC(=O)c3ccc(Cl)cc3)CC2)cc1	i
Cc1cccc(C)c1NC(=O)C1CCCN(Cc2ccccc2)C1 (stereo not given)	i
NC(=O)CSc1nc2ccccc2n1Cc1cccc2ccccc12	5.1%
Cn1c(NCc2ccccc2Cl)nc2ccccc21	7.8%
C=CCn1c(SCC(=O)Nc2ccc(F)cc2)nnc1-c1ccc(Br)cc1	i
O=C(CN1C(=O)c2cccc3cccc(c23)C1=O)N1CCN(c2ccc(F)cc2)CC1	i
CS(=O)(=O)N(CC(=O)Nc1ccccc1C(F)(F)F)c1cccc(F)c1	i
COc1ccc(-c2cc(-c3cccs3)nc3sc4c(=O)[nH]c(=O)[nH]c4c23)cc1	i
CSc1cccc(NC(=O)CCc2ccc(S(=O)(=O)NCc3ccccc3)cc2)c1	3.6%
CCCc1cc(=O)oc2c(C)c(OCc3cc(OC)c(OC)c(OC)c3)ccc12	i
Cc1cc(C)c2c(CC(=O)NNC(=O)c3ccc(F)cc3)coc2c1	i
Cc1ccc(NC(=O)CSc2c(C)n[nH]c2C)cc1Cl	i
COCCn1c(CCc2ccccc2)n[nH]c1=S	i
C=CCNCCCOc1ccc(Cl)cc1C(C)(C)C	6.96µg/mL*
CCOCCc1nnc(NC(=O)Cc2ccc(Br)cc2)s1	i
O=S(=O)(Nc1nc2nccc(-c3ccccc3)n2n1)c1ccccc1	i
Cc1sc(NC(=O)c2cccc(Br)c2)c(C(=O)O)c1C	3.8%
CCN(CC)C(=O)c1ccc2c(c1)C1C=CCC1C(c1ccc(Cl)cc1)N2 (stereo not given)	i
CCOC(=O)C(C)n1cnc2sc3c(c2c1=O)CCC3 (stereo not given)	i
C=CCOc1ccc(/C=C/[N+](=O)[O-])cc1OC	6.7%
CC(C)CC(=O)NCCc1ccncc1	i
Brc1ccc(OCCCCOc2ncnc3ccccc23)cc1	i
O=C(COc1ccc(-c2ccccc2)cc1)NNC(=S)NC(=O)c1cccs1	25.7%
Cc1ccc(NC(=O)c2ccccc2NC(=O)C(C)(C)C)cc1C	3.9%
COc1ccc(Cl)cc1-c1ccc(/C=C2\Sc3ccccc3C2=O)o1	i
S=c1n(CN2CCCCC2)c2ccccc2n1CN1CCCCC1	i
CCCn1cnc2sc(C)c(-c3ccc(F)cc3)c2c1=O	2.4%
CC(C)c1cccc(C(C)C)c1OCCCNCCO	4.0%
CCCCOc1ccc(NC(=O)C(=O)NCCc2ccc(OC)cc2)cc1	i
CCNC(=O)CC1C(=O)N(c2ccc(F)cc2)C(=S)N1CCN1CCC(Cc2ccccc2)CC1 (stereo not given)	i
CCNc1nc(SCCOc2ccccc2)nc(N(C)C)n1	i
O=C(CC12CC3CC(CC(C3)C1)C2)Nc1ccc(I)cc1Cl	i
O=C(CC1(O)C(=O)N(Cc2ccccc2Cl)c2ccccc21)c1ccccn1 (stereo not given)	i
COc1ccc(NC(=O)c2ccco2)cc1NC(=S)NC(=O)c1cc(Cl)cc(Cl)c1OC	0.7%
COC(=O)c1ccccc1NC(=O)CSc1[nH]c(=O)cc(C)c1C#N	i
CCOC(=O)C1=C(C)NC2=C(C(=O)CC(c3ccc(F)cc3)C2)C1c1ccc(N2CCOCC2)cc1 (stereo not given)	i
Cc1ccc(N2CC(C(=O)NCc3ccc4c(c3)OCO4)CC2=O)cc1 (stereo not given)	i
COc1ccccc1N1CCN(C(=O)COc2ccccc2Cl)CC1	i

These rows are one share of the data; count on the stated rates, not on these rows.
